Bioassay records deposited in PubChem by ICCB-Longwood Screening Facility, Harvard Medical School.
GIV-Gai inh = blocks GIV peptide binding to rat Galpha-i3; AID 1224905; actives 0.42% (n = 210,000); Galpha-i3/FITC-GIV peptide fluorescence polarization, 90 min; stronger effect = lower value; scaled: aluminum fluoride 0%, vehicle 100%; percent of control (FP), % (test concentration not listed); P08753;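 active = replicate mean at 85% of control or lower, very high polarization wells dropped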;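 note: wells of about 15 µL received 100 nL stock; the first replicate is given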
Target sequence (P08753 whole entry, looked up): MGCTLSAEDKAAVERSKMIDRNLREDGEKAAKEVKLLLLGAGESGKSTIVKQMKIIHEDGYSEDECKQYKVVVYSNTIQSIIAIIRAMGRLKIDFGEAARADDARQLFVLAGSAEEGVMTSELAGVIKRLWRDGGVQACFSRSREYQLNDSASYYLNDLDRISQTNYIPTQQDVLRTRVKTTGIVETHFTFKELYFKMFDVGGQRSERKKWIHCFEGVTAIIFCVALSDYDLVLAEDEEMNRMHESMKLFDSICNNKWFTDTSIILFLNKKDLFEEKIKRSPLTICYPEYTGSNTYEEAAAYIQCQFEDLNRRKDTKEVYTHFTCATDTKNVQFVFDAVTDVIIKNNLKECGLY
HCMV UL50-53 inh = inhibitors of HCMV UL50-UL53 nuclear egress complex interaction. HTRF UL50-UL53 interaction, normalized percent inhibition. inhibition, % (test concentration not listed). actives 0.15% (n = 190,000);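 active = both replicates at 50% or more, plus weaker picks with an unusually low signal ratio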;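 note: stock transfer was 100 nL into about 20 µL; 0% = negative control wells and 100% = wells with untagged competitor protein; inactives centre near -12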
Sa growth inh = blocks Staphylococcus aureus growth; S. aureus RN4220 growth, OD600, 20 h, 42 °C; stronger effect = lower value; relative growth, % (no concentration beside the values); actives 0.53% (n = 170,000);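 active = growth at 42 °C up to 50% and 20 or more points under that at 30 °C, or under 10% at both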;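 note: 300 nL library stock went into each well; scaled to the means of positive and negative controls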
Sa growth inh second temp = recorded beside Sa growth inh, whose call it bears; relative growth, %; measured here: growth at 30 °C;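 optical density after 20 h as mean of two plates; 100% = untreated growth and lower means inhibition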
* marks the source's active call; other numbers are inactive results; x = not tested or not shown; & = joins results of further samples.

SMILES	GIV-Gai inh	HCMV UL50-53 inh	Sa growth inh	Sa growth inh second temp
CC(=O)NC[C@H]1CN(c2ccc(N3CCOCC3)c(F)c2)C(=O)O1	105&103	-6&-11	-0.8*	-0.9*
CC1(C)c2ssc(=S)c2-c2ccccc2N1C(=O)c1sc2ccccc2c1Cl	103	-7	x	x
Cc1ccc(C(CC#N)C2CCOC(C)(C)C2)cc1 (configuration not stated)	97	-10	98	78
Cc1ccc(C)c(N2CCN(c3c4c(nc5ncnn35)CCCC4)CC2)c1	102	-18	x	x
O=S(=O)(c1cccc2nsnc12)N1CCN(C(c2ccccc2)c2ccccc2)CC1	105	-31	89	82
CC(C#N)Sc1nnc(C2CCCCC2)n1N (configuration not stated)	x	-24	92	84
CCn1c(SCC(=O)N2CCC(C)CC2)nnc1-c1ccccc1O	105&105&99	-22&-4	112&92	87&87
CN(C)c1scc(-c2ccccc2)c1C#N	102	-10	104	68
CCc1nc2cccnc2n1-c1ccc(CC(=O)NCC2CCCO2)cc1 (configuration not stated)	106	-25	94	87
CNS(=O)(=O)c1ccc(Cl)cc1Cl	x	-4	103	93
CCc1cccc(C)c1NC(=O)CSc1nnc(N)s1	106	-64	83	87
O=C(Cn1c2ccccc2c(=O)c2cc([N+](=O)[O-])ccc21)Nc1ccc(Cl)c(Cl)c1	102	-16	x	x
CCOc1ccc(/C(O)=C/C(=O)C(=O)Nc2ccc(S(=O)(=O)NC(C)=O)cc2)cc1	98	x	85	90
O=C(NCCc1ccccc1)c1cc2n(n1)C(C(F)(F)F)CC(c1ccc(Br)cc1)N2 (configuration not stated)	101	x	91	82
O=C(NCc1ccco1)C1Sc2nnc(-c3ccccc3)n2NC1c1ccccc1 (configuration not stated)	104	1	99	102
COc1ccc(CN=Cc2ccc(C(F)(F)F)cc2)cc1	100	-48	83	84
O=C1OCN2c3ccccc3C34OC12c1ccccc1N3COC4=O	x	-16	95	101
CC(C)S(=O)(=O)c1cnc(N)nc1N	109	0	103	87
Fc1ccc(-c2cc(-c3ccccc3)c3c(n2)-c2cc(F)ccc2OC3)cc1	104	-1	104	99
COc1cccc(-n2c(=O)c3sc4ccccc4c3n(CC(=O)Nc3cccc(Cl)c3)c2=O)c1	98	-21	104	89
COc1ccc(N=C2NC(=O)/C(=C\c3ccc(Sc4nc5ccccc5[nH]4)o3)S2)cc1	104	-42	94	81
COc1ccc(N2CCN(C(C)C(=O)N(C)c3ccccc3)CC2)cc1 (configuration not stated)	x	-18	92	93
O=C(CN1C(=O)CCn2nc(-c3cccc(Cl)c3)cc21)N1CCCC1	110	-14	x	x
CC(C)C(CC(=O)O)c1c[nH]c2ccccc12 (configuration not stated)	99	-6	120	92
Cc1oc2c(c1C(=O)NC1CCCCC1)C(=O)c1ccccc1C2=O	100	-38	8.8*	5.5*
Cc1nn(-c2ccccc2)c2ncc(C(=O)c3ccccc3O)cc12	x	-1	115	92
O=C(O)C(Cc1ccccc1)N1C(=O)/C(=C/C=C/c2ccco2)SC1=S (configuration not stated)	121	70*	29	40
COc1cc(N)c(/C(N)=N/O)cc1OC	102	-1	103	86
O=C(Nc1ccc2c(c1)OCCO2)c1cccc(Nc2cc(-c3cccc(F)c3)ncn2)c1	108	-31	x	x
Cc1ccc(-c2cc(-c3ccccc3)c(C#N)c(SCS(=O)Cc3ccccc3)n2)cc1 (configuration not stated)	100	x	107	93
COc1cc(OC)c(/C=C2\C(=O)NC(=O)N(C3CCCCC3)C2=O)c(OC)c1	x	6	101	76
CN(C)CCNC(=O)Cn1nc(C(F)F)cc1C1CC1	99	-5	100	95
O=C(c1ccccc1Cl)N(Cc1ccccc1)c1ccccn1	x	-2	86	95
CC(=O)N1CCN(C(=S)Nc2ccc(F)cc2)CC1	x	12	89	100
Nc1n[nH]c(CCCO)n1	x	-24	76	90
COC(=O)CN1C(=S)N(Cc2ccccc2)C(=O)C1CC(=O)Nc1ccc(OC)cc1 (configuration not stated)	101	x	90	70
CC(Oc1ccccc1)C(=O)OCc1cc(=O)n2nc(C(C)C)sc2n1 (configuration not stated)	107	x	88	98
N#C/C(=C(/O)CSc1ccccn1)c1nc2ccccc2s1	x	-2	42	13
CCCCC(=O)N1c2ccccc2NC2=C(C(=O)CCC2)C1c1ccccc1 (configuration not stated)	97	x	77	69
Cc1ccc(-n2ncc(-c3cc(C(=O)NCC4CCCO4)c4cc(C)ccc4n3)c2C)cc1 (configuration not stated)	103	-46	x	x
CCCCOc1ccc(Cn2c(=O)sc3ccccc32)cc1OC	100	-20	94	91
CC1=C(C(N)=O)C(c2ccc(C(C)C)cc2)n2nc(SCc3ccccc3F)nc2N1 (configuration not stated)	103	-75	135	101
OCCNC(=S)NC1CCCC1	104	8	103	94
COc1ccc(N2CCN(C(=O)CCc3nnc4c5cc(-c6ccccc6)nn5ccn34)CC2)cc1	109	-5	x	x
CC1(C(=O)NC2CCCC2)Cn2c(cc3sccc32)C(=O)N1Cc1ccccc1Br (configuration not stated)	99	5	x	x
CC(C)Cn1c(-c2ccncc2)n[nH]c1=S	96	x	112	81
Cc1ccc(/C=C/c2nc3ccccc3[nH]2)cc1	102	x	85	41
Cc1ccc(-c2nc3nc4c(c(N5CCCC5)n3n2)CCC4)cc1	89	9	x	x
Cc1nc(N)sc1N=Nc1ccc(S(=O)(=O)N2CCOCC2)cc1	107	-92	104	91
N#CCc1ccc(NC(=O)Cc2ccccc2)cc1	102	-5	106	95

(listing goes on)
SMILES	GIV-Gai inh	HCMV UL50-53 inh	Sa growth inh	Sa growth inh second temp
O=C(O)c1ccc(NNC(=S)NCCN2CCOCC2)cc1	x	-16	92	89
CC1(C)CC(=O)C(C=NC2CCCCC2)=C(O)C1	96	2	91	92
O=C1C2C3C=CC(C2C(=O)N1Cc1cccnc1)C1C(=O)N(Cc2cccnc2)C(=O)C31 (configuration not stated)	104	-17	x	x
Cc1nc(-n2cc(F)c(=O)[nH]c2=O)c2nc(C)oc2n1	x	-11	100	60
Cc1ccc(C(=O)Oc2ccc(C3SCCS3)cc2)cc1	x	-15	87	90
COc1ccc(Cl)cc1NC(=O)CN(C)S(=O)(=O)c1ccc2c(c1)CCCC(=O)N2	103	-14	118	92
CCCOc1ccc(CNC(=O)CCn2cnc3c([nH]c4ccc(F)cc43)c2=O)cc1	94	-10	x	x
CC(O)c1ccc(-c2ccc(CO)o2)cc1 (configuration not stated)	x	-11	94	91
CCc1nnc(NC(=O)CSc2nc(-c3ccccc3)cc(C(F)(F)F)c2C#N)s1	101	x	113	94
CCSc1nnc(-c2c[nH]c3ccccc23)n1CCOC	100	x	89	92
COc1ccc(C2CC(=O)N(C)c3ccccc3S2)cc1OC (configuration not stated)	103	-37	80	79
CCc1c(C(=O)OC)nnc2cc(C)nn12	100	-74	93	88
COc1ccc(CNc2nc(-c3ccccc3)nn2S(=O)(=O)c2ccccc2)cc1	107	9	84	103
CNC(=S)Nc1cc(Cl)cc(Cl)c1	99	-44	26	27
CNC(=S)N1CCc2cc(OC)c(OC)cc2C1COc1ccc(OC)cc1 (configuration not stated)	101	x	101	78
CN1CCN(NS(=O)(=O)c2ccc3ccccc3c2)CC1	101	-18	82	103
O=C(NCc1cccc(F)c1)c1ccccc1NC(=O)c1nsc2ccccc12	101	x	136	89
Cc1cccc(-c2nc(CNC(=O)C3CCCO3)cs2)c1 (configuration not stated)	98	-33	90	101
CCOC(=O)c1nnc(-c2ccc(C(F)(F)F)cc2)o1	107	-215	105	85
O=C(Cn1c(=O)n(Cc2ccc3c(c2)OCO3)c(=O)c2ccc(C(=O)NC3CCCCC3)cc21)Nc1ccccc1F	102	-1	119	95
Cc1ccc(-c2noc(C3CCN(C(=O)C4CCC4)CC3)n2)cc1	101	-11	x	x
COc1cccc(CNC(=O)CCc2c(C)nc3c(c2C)c(=O)n(C)c(=O)n3C)c1	104	-29	99	91
FC(F)(F)c1cc(NC(=S)NC2CCCCC2)cc(C(F)(F)F)c1	100	-35	7.4*	6.5*
CN(C(=O)COC(=O)C1CC2C=CC1C2)C1CCCCC1 (configuration not stated)	x	-1	109	95
CC(=O)NC1=NC(=O)/C(=C/c2cc3c(cc2Br)OCO3)S1	110	-12	x	x
Cc1cccc(CC(=O)NC2CC(=O)N(c3ccccc3)C2)c1 (configuration not stated)	97	x	95	83
CCOc1ccc(NC(=O)c2ccc(Br)o2)cc1	98	-24	90	81
C(#Cc1cncc(-c2nc(-c3ccccc3)no2)c1)c1ccccc1	100	-14	106	86
CC1=Nc2cc(C(=O)NCc3ccc(C)cc3)ccc2Sc2ccc(Cl)cc21	108	x	117	98
O=C(NCc1ccccn1)c1cccc(-n2cnc3cccnc32)c1	110	-3	x	x
COc1cccc(CNC(=O)COCc2cc(-c3ccc4c(c3)OCO4)on2)c1	102	x	112	82
CCOC(=O)CNc1nc2ccc(C)cc2n2cnnc12	105	x	108	90
CSc1nnc2c(n1)OC=Nc1ccc(Cl)cc1-2	99	x	66	93
COc1ccc(-c2nc(CNS(=O)(=O)c3ccc(NC(C)=O)cc3)cs2)cc1	98	x	102	82
COc1ccc(OCC(=O)NCC2(N3CCN(C)CC3)CCCCC2)cc1	97	-4	98	89
S=C(c1cccnc1)N1CCOCC1	102	8	99	99
O=C(COc1ccc(Cl)cc1)NCCn1c(C(F)(F)F)nc2cccnc21	107	-10	x	x
O=c1c2[nH]c3ccccc3c2ncn1Cc1ccc(F)cc1	97	-29	x	x
O=C(CCSc1nnc(-c2ccco2)o1)N1CCOCC1	101	-7	98	87
COc1cc(C2C(C#N)=C(N)Oc3n[nH]c(-c4cc(OC)c(OC)c(OC)c4)c32)cc(OC)c1O (configuration not stated)	118	-74	x	x
CNC(=O)NC(=O)Cn1cnc2sc(-c3ccccc3)cc2c1=O	105	-32	107	92
CC(C)OC(=O)n1c(=S)oc2ccccc21	94	x	103	93
CN(C)c1ccc(-c2noc(-c3ccc(F)c(Cl)c3)n2)cc1	105	-26	x	x
Cc1cc(-c2cn3cc(Br)ccc3n2)c(C)n1Cc1ccco1	x	-21	95	88
Cc1nn(S(=O)(=O)c2ccc(C(C)(C)C)cc2)c(C)c1S(=O)(=O)N1CCC(C)CC1	105	x	93	93
CSCC[C@@H](C(=O)O)N1Cc2ccccc2C1=O	103	19	95	86
Cc1nonc1OCCN1CCN(c2cnn(-c3ccccc3)c(=O)c2Cl)CC1	105	-12	125	81
Cc1ccc(C2=CC(c3ccccc3)n3nc(NS(=O)(=O)c4ccc(C)cc4)nc3N2)cc1 (configuration not stated)	102	-41	x	x
COc1ccccc1N1CCN(C(=O)Cn2ncc3ccsc3c2=O)CC1	101	9	96	94
CN(C)NC(=S)Nc1cccc(C(F)(F)F)c1	106	-23	82	81

Single records, as listed above. Screens in order: GIV-Gai inh	HCMV UL50-53 inh	Sa growth inh	Sa growth inh second temp
Results for CN(C)c1ccc(-c2noc(-c3ccc(F)c(Cl)c3)n2)cc1 : 105	-26	x	x
Results for Cc1nonc1OCCN1CCN(c2cnn(-c3ccccc3)c(=O)c2Cl)CC1 : 105	-12	125	81

Of the compounds above, these have a COOH group:
SMILES	GIV-Gai inh	HCMV UL50-53 inh	Sa growth inh	Sa growth inh second temp
CC(C)C(CC(=O)O)c1c[nH]c2ccccc12 (configuration not stated)	99	-6	120	92
O=C(O)C(Cc1ccccc1)N1C(=O)/C(=C/C=C/c2ccco2)SC1=S (configuration not stated)	121	70*	29	40
O=C(O)c1ccc(NNC(=S)NCCN2CCOCC2)cc1	x	-16	92	89
CSCC[C@@H](C(=O)O)N1Cc2ccccc2C1=O	103	19	95	86

Next section
SMILES	GIV-Gai inh	HCMV UL50-53 inh	Sa growth inh	Sa growth inh second temp
COc1ccc2c(NCC3=CC=CC3)cc(C)nc2c1	119	4	88	73
CCOC(=O)CC1=CC(=O)N(CC(=O)Nc2ccc(N(CC)CC)cc2C)c2cc(C)c(C)cc2N1	112	-20	x	x
O=C1S/C(=C/c2ccccc2)C(=O)N1CC(O)Cn1c2ccccc2c2ccccc21 (configuration not stated)	x	-14	117	90
Cc1ccc(-c2nc3ncccc3o2)cc1NC(=O)c1cccc(OCC(C)C)c1	95	0	104	93
COc1ccc(NS(=O)(=O)c2cc(N3C(=O)CCS3(=O)=O)ccc2OC)c(OC)c1	101	-23	x	x
CCCC(=O)n1nc(-c2ccco2)nc1NCc1ccccc1Cl	102	-28	117	88
CCOC(=O)C1=C(C)N=c2s/c(=C/c3ccc4c(c3)OCO4)c(=O)n2C1c1ccc(OC(C)=O)cc1 (configuration not stated)	105	-14	x	x
CCN1CCCC1CNc1ccc(S(=O)(=O)N2CCCC2)cn1 (configuration not stated)	x	-12	88	94
Cc1c(NC(=O)COc2ccc(C3CCCCC3)cc2)cccc1-c1nc2ncccc2o1	107	1	x	x
COC(=O)C(C)Oc1ccc2c(=O)c(-c3ccc(Cl)cc3)c(C(F)(F)F)oc2c1 (configuration not stated)	100	-16	x	x

Just Sa growth inh second temp and HCMV UL50-53 inh, for three of the compounds above:
| Molecule | Sa growth inh second temp | HCMV UL50-53 inh |
| --- | --- | --- |
| CCCC(=O)n1nc(-c2ccco2)nc1NCc1ccccc1Cl | 88 | -28 |
| CCOC(=O)C1=C(C)N=c2s/c(=C/c3ccc4c(c3)OCO4)c(=O)n2C1c1ccc(OC(C)=O)cc1 (configuration not stated) | x | -14 |
| CCN1CCCC1CNc1ccc(S(=O)(=O)N2CCCC2)cn1 (configuration not stated) | 94 | -12 |
